# Menin-MLL FL inh = displaces fluorescein MLL peptide from human menin. Fluorescence polarization, fluorescein-MLL peptide displacement from menin. FP activity change, % at 61.4 µM. 290,000 tested, under 10 active; inconclusive = falling polarisation curve, or a change in total fluorescence; inactive = total fluorescence flat and polarisation flat or rising; no compound was filed as active; the % refers to the polarisation; negative = inhibition;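 also: % of control where 0% means no effect; inhibitors lower the polarisation; unlabelled MLL peptide was the positive control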
# TRPML1 blocker = inhibitors of human TRPML1 channel; Q9GZU1; TRPML1-inducible cells, Ca2+ dye fluorescence, FDSS; active compounds read low; inhibition of EC80 agonist-evoked calcium signal; activity change, negative = inhibition, % (no concentration beside the values); hit rate 0.02% among 390,000; AID 624415; in the data active means activity change below about -50%; inconclusive means about -30% to -50%; inactive means above about -30%;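 also: stimulus is agonist 54-4 at its EC80 concentration; % is scaled to controls: 0 for no effect and ±100 for the full control effect; compound concentration not given in the record; the text of the record puts the active cut at -80%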
#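 TRPML1-DL cells, Tet-induced overnight (~16 h, 37 °C) at 1,500 cells/well, were loaded with Ca8 no-wash dye plus quencher for 45-90 min at room temperature. Compounds were pinned during FDSS kinetic reading; agonist 54-4 at EC80 (4 uM final) then added.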
# PINK1 modulator = modulators of PINK1 expression; PINK1 immunofluorescence, high-content cytometry, 24 h; Potency, µM (highest dose often 76.6 µM), for inactives: at the top dose activation (PINK1 increase), most hits filed as activators; hit rate 0.2% among 410,000; AID 624263; active = well fitted activation curve with a large enough effect; inconclusive = small, poorly fitted or top-dose-only effect; inactive = flat fitted curve, though single readings scatter; cell line not stated here;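 also: potency is read from the fitted curve at half-maximal effect; % of control where 0% means no effect; nearly all actives have a fitted effect of over 65% in size; a mitochondrial uncoupler was the plate control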
#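 Decision-based qHTS: stable cells, 24 h exposure to five compound concentrations, CCCP as control. Fixed cells stained for PINK1 plus nuclear, mitochondrial and cell markers, cytometer read.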
# Sfp inh = blocks B. subtilis Sfp PPTase activity | Q9F4F7 | Biochemical Sfp PPTase activity, qHTS | Potency, µM, for inactives: max response, negative = inhibition, most hits filed as inhibitors | hit rate 3.5% among 310,000 | AID 1490; active = well fitted inhibition curve with a large enough effect; inconclusive = small, poorly fitted or top-dose-only effect, or another doubt; inactive = no such curve, though single readings can be large or run the other way;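 also: the enzyme is Sfp with the accession as filed and its product quenches rhodamine fluorescence; potency is read from the fitted curve at half-maximal effect; 0% = enzyme reaction without inhibitor and -100% = no enzyme wells; top concentration of the series not given in the record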
#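 Fluorescence-quenching assay: 15 nM Sfp-PPTase preincubated 15 min at room temperature with compound, then 5 uM rhodamine-CoA and 12.5 uM BHQ-2-labelled YbbR peptide added. Fluorescence (ex 525/em 598 nm) read at start and after 30 min; difference gives rate.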
# ClpP mod = qHTS Assay for Activators of ClpP; ATP-dependent Clp protease proteolytic subunit (Bacillus subtilis (strain 168)), P80244; purified B. subtilis ClpP, FRET peptide cleavage, 20 min; Potency, µM (series often up to 57.5 µM), inactives show top-dose activity change, negative = active; hit rate 1.9% among 340,000; AID 651965, 2013; active = well fitted falling curve with a large enough effect; inconclusive = small, poorly fitted or top-dose-only effect; inactive = no such curve, though single readings can be large or run the other way; also: potency is read from the fitted curve at half-maximal effect; the source files actives as falling curves though it sought activators and does not explain the sign; nearly all actives have a fitted effect of over 65% in size; many hits overshoot -100%
# Target sequence (P80244 whole entry, looked up): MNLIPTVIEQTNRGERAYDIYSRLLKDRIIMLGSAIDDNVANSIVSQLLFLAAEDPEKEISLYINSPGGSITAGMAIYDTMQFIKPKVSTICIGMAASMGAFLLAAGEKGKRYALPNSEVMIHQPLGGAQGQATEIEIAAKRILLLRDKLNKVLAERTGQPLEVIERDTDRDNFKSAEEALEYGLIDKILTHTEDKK
#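 ClpP 10 microg/mL final, pH 8 Tris/KCl buffer with BSA, glycerol, Tween-20; compound pinned in; FRET-FV substrate; RT 20 min; Ex320/Em430; ΔFRET vs ADEP 5.8 microM, DMSO, no enzyme.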
# TRPV1 potentiator = human TRPV1 potentiation | Q8NER1 | TRPV1-expressing cells, Fluo-8 calcium influx, capsaicin EC20 potentiation; host cell line not named in the record; control for the full effect not named in the record | potentiation, % at 8.33 µM | hit rate 0.02% among 320,000 | AID 540277; active means potentiation above 80%; inconclusive means 30% to 80%; inactive means below 30%; also: 0% is about no effect
# Target sequence (Q8NER1 whole entry, looked up): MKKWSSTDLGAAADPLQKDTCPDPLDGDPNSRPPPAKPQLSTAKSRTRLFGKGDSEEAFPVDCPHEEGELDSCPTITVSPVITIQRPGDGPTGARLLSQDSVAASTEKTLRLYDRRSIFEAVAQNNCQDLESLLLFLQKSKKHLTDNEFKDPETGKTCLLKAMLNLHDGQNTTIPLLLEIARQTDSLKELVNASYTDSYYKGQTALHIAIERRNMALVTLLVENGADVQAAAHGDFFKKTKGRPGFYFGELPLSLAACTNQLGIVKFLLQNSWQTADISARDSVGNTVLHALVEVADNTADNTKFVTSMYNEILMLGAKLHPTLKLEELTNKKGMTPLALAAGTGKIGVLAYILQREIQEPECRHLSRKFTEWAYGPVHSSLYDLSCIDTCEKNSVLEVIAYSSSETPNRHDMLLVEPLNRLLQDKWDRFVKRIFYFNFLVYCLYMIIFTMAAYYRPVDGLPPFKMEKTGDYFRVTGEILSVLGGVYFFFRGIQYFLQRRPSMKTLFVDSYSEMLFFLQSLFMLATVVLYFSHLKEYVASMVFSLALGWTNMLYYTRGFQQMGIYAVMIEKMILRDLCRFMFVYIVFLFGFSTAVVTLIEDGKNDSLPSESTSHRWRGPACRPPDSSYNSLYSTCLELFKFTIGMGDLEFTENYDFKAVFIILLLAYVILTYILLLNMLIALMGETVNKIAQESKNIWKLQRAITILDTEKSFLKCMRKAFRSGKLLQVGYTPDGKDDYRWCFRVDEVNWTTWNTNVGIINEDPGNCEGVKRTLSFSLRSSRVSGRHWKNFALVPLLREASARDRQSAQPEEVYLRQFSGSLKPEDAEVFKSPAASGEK
#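 Cells expressing TRPV1 were dye-loaded with Fluo-8 and read kinetically: 10 s baseline, 3 min after compound (agonist portion), then 2 min after EC20 capsaicin (allosteric enhancer portion). Calcium-bound dye fluorescence at 480/520 nm.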
# TRPML1 ag = activates the human TRPML1 channel; Q9GZU1; TRPML1-expressing cells, Ca2+ dye fluorescence, FDSS; host cell line not named in the record; reference of the full effect not given here; activation, % (concentration not given with the values); hit rate 0.12% among 410,000; AID 624414; in the data active = activation above about 50%; inconclusive = about 30% to 50%; inactive = below about 30%; also: 0% is about no effect; the text of the record puts the active cut at 80%
#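 In this qHTS format, compounds were pin-transferred onto Ca8-dye-loaded TRPML1-DL cells induced with Tet overnight, and intracellular Ca2+ fluorescence was recorded kinetically for 110 s after a 10 s baseline. A subsequent 4uM final 54-4 (EC80) addition followed by a second 110 s read served as the antagonist phase.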
# Active calls of the source: *; u = inconclusive; x = not tested or not shown; & = joins results of further samples; [ ] = remark or other dose.
SMILES,Menin-MLL FL inh,TRPML1 blocker,PINK1 modulator,Sfp inh,ClpP mod,TRPV1 potentiator,TRPML1 ag
COc1cccc(C(=O)N2CCN(Cc3ccccc3Br)CC2)c1,-2.1,x,0.3%,-38%,-1.0%,-4,x
O=C(CSc1ccc(-c2ccc(F)cc2)nn1)NCc1ccco1,2.4,5,3.7%,13%,-0.1%,9,1.9
COCC(=O)N(C)C[C@@H]1Oc2ncc(Br)cc2C(=O)N([C@@H](C)CO)C[C@H]1C,x,23,-0.8%,x,-2.5%,x,0.3
Cc1nn(-c2ccccc2)c(C)c1C=O,3.8,-2,-1.9%,17%,x,-21,0.2
CCN(CC(=O)Nc1c(F)cccc1F)C(=O)c1cc(S(=O)(=O)N2CCOCC2)ccc1N1CCCC1,x,3,-1.7%,x,1.3%,4,0.1
C=CCc1cccc(C2Nc3ccccc3C(=O)N2O)c1O (configuration not stated),-1.7,10,3.0%,5%,2.3%,1,-0.6
CSc1cccc(NC(=O)CN(C)S(=O)(=O)c2cnc[nH]2)c1,x,14,1.7%,16%,1.2%,u,-0.5
O=S(=O)(c1cccc(Cl)c1)N1CCCC1,-6.1,1,0.2%[38.3 µM],7%,-2.2%,-15,0.0
CCC(c1nnc(SCC(=O)NNC(=O)c2ccccc2)n1Cc1ccccc1)N(C)C (configuration not stated),x,26,2.2%,x,-1.3%,-2,0.9
CCOC(=O)CC1C(=O)NCCN1C(=O)c1sc2ccccc2c1Cl (configuration not stated),-1.6,7,-0.9%,6%,0.5%,1,0.1
CC[N+](CC)(CC)CCCCOc1ccc2c(c1)C(=O)c1cc(OCCCC[N+](CC)(CC)CC)ccc1-2,-11,10,0.5%,-13%,-0.5%,-2,0.7
O=C(OCc1nnc(-c2ccc(Br)cc2)o1)c1cncc(Br)c1,3.7,3,0.0%,-13%,x,2,2.0
CCOC(=O)c1ccc(NC(=O)C(=O)NCCc2ccc(OC)cc2)cc1,-0.1,12&27,1.1%&3.1%,17%,0.7%,5,0.1&-1.0
CC(C)c1nc(Cl)c(C#N)c2c1CCC2,-1.8,16,5.2%,-23%,0.1%,4,-0.2
CCOc1ccccc1NC(=O)NCc1ccco1,-1.9,2,-0.1%,4%,-2.4%,7,-0.6

# Molecules shown so far containing an aryl methoxy group (2):
SMILES,Menin-MLL FL inh,TRPML1 blocker,PINK1 modulator,Sfp inh,ClpP mod,TRPV1 potentiator,TRPML1 ag
COc1cccc(C(=O)N2CCN(Cc3ccccc3Br)CC2)c1,-2.1,x,0.3%,-38%,-1.0%,-4,x
CCOC(=O)c1ccc(NC(=O)C(=O)NCCc2ccc(OC)cc2)cc1,-0.1,12&27,1.1%&3.1%,17%,0.7%,5,0.1&-1.0

# In the list so far, 2 have a furan ring, fused or not.
SMILES,Menin-MLL FL inh,TRPML1 blocker,PINK1 modulator,Sfp inh,ClpP mod,TRPV1 potentiator,TRPML1 ag
O=C(CSc1ccc(-c2ccc(F)cc2)nn1)NCc1ccco1,2.4,5,3.7%,13%,-0.1%,9,1.9
CCOc1ccccc1NC(=O)NCc1ccco1,-1.9,2,-0.1%,4%,-2.4%,7,-0.6

# Continuation:
SMILES,Menin-MLL FL inh,TRPML1 blocker,PINK1 modulator,Sfp inh,ClpP mod,TRPV1 potentiator,TRPML1 ag
O=C(N/N=C1\CCS(=O)(=O)c2ccc(F)cc21)c1ccc([N+](=O)[O-])cc1,1.1,9,-1.2%,-12%,2.1%,12,2.6
CCCCc1cc(=O)oc2c(C)c(OCc3nn[nH]n3)ccc12,3.0,1,-0.7%,-13%,x,4,1.6
Cc1ccc(C(C)C)c(OCCCN2CC(C)OC(C)C2)c1 (configuration not stated),3.4,13,5.1%,u,-30%,-4,0.2
CC(=O)Nc1ccc(S(=O)(=O)N2CCNC(=O)C2)cc1,x,-4,-1.6%,x,1.7%,x,1.0
CCC(=O)Oc1ccc(NC(=O)c2ccco2)cc1,-0.8,-5,-0.2%,24%,x,1,1.0
CCOC(=O)C(Sc1ncc(C#N)c(N)n1)C(C)C (configuration not stated),7.1,-9,-1.3%,56µM*,-25%,17,-0.8
CCOc1ccccc1C1CC(=O)Nc2cc(C)c(C)cc21 (configuration not stated),2.6,x,4.3%,9%,1.5%,-16,x
CCc1c(C)c(C#N)c2nc3ccccc3n2c1Cl,8.3,x,x,13%,x,7,x
N#C/C(=C\c1ccccc1OCC(=O)O)c1nc2ccccc2[nH]1,u,6,1.8%,10%,-2.3%,14,-0.5
Nc1nc(Br)c2ccccc2c1-c1ccccc1,-3.6,-5,4.6%,-2%,x,23,-0.4
CCc1nc2ccc(C(=O)NCc3ccc(OC)cc3)cn2c1N(CC)CCOC,x,x,-0.2%,x,-4.2%,x,-1.0
O=C(N/N=C/c1sc(=O)[nH]c1-[n+]1ccc2ccccc2c1)c1ccccc1[O-],x,-13,1.0%,-13%,-30%,-13,12
COc1ccccc1C(=O)c1ccccc1C(=O)c1ccccc1,x,-12,0.3%,x,x,x,2.1
CCN(CC)C(=O)C1=C(C)N(CCCOC)C(=O)C(CC(=O)NCc2cccs2)C1 (configuration not stated),x,-26,0.5%,x,2.5%,x,-0.5
COc1ccc(S(=O)(=O)N2CCOC2CNC(=O)C(=O)NCCCc2ccccc2)cc1 (configuration not stated),x,16,-1.3%,16%,-1.1%,-9,2.5
c1coc(-c2ccnc3ncnn23)c1,-2.3,0,-1.2%,-14%,x,8,-0.3
O=C(O)c1ccc(Nc2cccc(F)c2)c([N+](=O)[O-])c1,-1.0,3,-2.1%,15%,-7.1%,12,0.0
CC(=O)c1sc2nsc(SCCN3CCCC3)c2c1N,u,-17,-1.4%,40µM*,-3.6%,-35,0.2
COC(=O)c1sccc1NC(=O)c1c(Cl)cnn1C,x,19,0.1%,7%,-0.7%,6,2.6
Cc1cc(NC(=O)c2cc(-c3cccc(OCC(C)C)c3)nc3ccccc23)no1,x,-3,0.2%,6%,u,7,0.0
COCCCNC(=O)CSc1nc2ccccc2c(=O)n1CCc1ccc(S(N)(=O)=O)cc1,x,54,1.0%,9%,-3.1%,-4,0.5
O=C(c1ccc2c(c1)CCN2S(=O)(=O)c1ccccc1)N1CCN(c2ccc(F)cc2)CC1,x,68&-10,0.1%&0.9%,14%,-3.9%&-0.7%,-24,1.2&-0.2
Cc1ccc(S(=O)(=O)N2C[C@@H]3c4ccccc4N(S(=O)(=O)c4ccc(C)cc4)[C@@H]3[C@@H](C)C2CC(=O)c2ccccc2)cc1 (some centres not stated),x,28,-0.5%,x,-3.5%,x,0.0
Cc1nn(-c2nnc(NCc3ccccc3)nn2)c(C)c1Br,-0.1,5,9.4%,-4%,-0.8%,-2,-0.6
O=C(N/N=C\c1cccnc1)c1cc(-c2ccccc2)nc2c(Cl)cccc12,x,-16,1.8%,-6%,-5.0%,u,2.1
CCOc1ccc(NC(=O)c2cnc(N3CCCCC3)c3ccccc23)cc1,x,7,0.8%,x,-7.5%,x,0.0
CCOC(=O)OCC(=O)C1(O)CCC2C3CCC4=CC(=O)CCC4(C)C3C(O)CC21C (configuration not stated),x,26,2.1%,x,1.1%,x,0.4
O=C(O)c1ccc(NC(=O)c2ccc(COc3ccccc3)o2)cc1,-2.3,15,-0.6%,9%,0.7%,14,-0.2
COn1c(-c2ccc(Cl)cc2Cl)nc2ncccc21,-5.2,-2,0.4%,15%,x,-31,1.1
O=C(OCc1ccc(O)cc1)c1c(-c2ccsc2)oc2ccc(N3CCOCC3)cc12,-0.9,5,0.8%,u,0.0%,-3,-0.3

# A stretch taken from the entries so far, for reference:
SMILES,Menin-MLL FL inh,TRPML1 blocker,PINK1 modulator,Sfp inh,ClpP mod,TRPV1 potentiator,TRPML1 ag
O=C(O)c1ccc(NC(=O)c2ccc(COc3ccccc3)o2)cc1,-2.3,15,-0.6%,9%,0.7%,14,-0.2
COn1c(-c2ccc(Cl)cc2Cl)nc2ncccc21,-5.2,-2,0.4%,15%,x,-31,1.1
O=C(OCc1ccc(O)cc1)c1c(-c2ccsc2)oc2ccc(N3CCOCC3)cc12,-0.9,5,0.8%,u,0.0%,-3,-0.3

# Remaining list, next part:
SMILES,Menin-MLL FL inh,TRPML1 blocker,PINK1 modulator,Sfp inh,ClpP mod,TRPV1 potentiator,TRPML1 ag
Cn1cccc1C(=O)N1CCC2(CC1)CN(Cc1ccc(C#N)cc1)C2,-11,x,0.2%,14%,x,x,x
N=c1c2c3c(sc2nc2n1CCCCC2)CCCCC3,-0.3,15,0.7%,-19%,0.5%,-12,1.4
c1ccc(CC2CCN(Cc3ccccn3)CC2)cc1,-4.0,-10,0.7%,3%,1.3%,3,-0.4
O=C(NC1CCCC1)c1ccc(Br)o1,2.5,-1,0.0%,18%,-0.2%,-6,-0.3
Cc1ccc2nc(N3CCN(c4ccccc4)CC3)c(C=O)c(=O)n2c1,-10,7,0.0%,3%,x,-5,-0.2
Cc1cc(S(=O)(=O)Nc2c(C)nn(C)c2C)c(Cl)cc1Cl,-0.9,-2,-0.8%,11%,x,u,1.4
C[C@H](NC(=O)c1ccco1)C(=O)Nc1nnc(SCc2ccccc2)s1,x,21,-0.2%,x,0.8%,x,0.8
CCOC(=O)c1cnc2c(C(F)(F)F)cccc2c1Nc1cccc(C(=O)OC)c1,x,-15,3.2%,x,-15%,x,2.3
COc1cc2[nH]c(C)c(CCN3CCN(c4ccccc4)CC3)c2cc1OC,x,x,-0.4%,x,-29%,x,-0.5

# Bioassay records: PubChem BioAssay, National Center for Advancing Translational Sciences (NCATS)
